# HPGD block = HPGD (human) dehydrogenase inhibition | P15428 | purified HPGD, NADH fluorescence kinetic, PGE2 substrate | Potency, µM, inactives show at the top dose activity change, negative = inhibition, actives largely listed as inhibitors | 150,000 tested, 4.3% active; active = well fitted inhibition curve with a large enough effect (not every such curve was filed as active); inconclusive = small, poorly fitted or top-dose-only effect, or another doubt; inactive = no such curve, though single readings can be large or run the other way;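 also: top concentration of the series not given in the record; plate controls included wells without enzyme; inactives centre near -10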
# Target sequence (P15428 whole entry, looked up): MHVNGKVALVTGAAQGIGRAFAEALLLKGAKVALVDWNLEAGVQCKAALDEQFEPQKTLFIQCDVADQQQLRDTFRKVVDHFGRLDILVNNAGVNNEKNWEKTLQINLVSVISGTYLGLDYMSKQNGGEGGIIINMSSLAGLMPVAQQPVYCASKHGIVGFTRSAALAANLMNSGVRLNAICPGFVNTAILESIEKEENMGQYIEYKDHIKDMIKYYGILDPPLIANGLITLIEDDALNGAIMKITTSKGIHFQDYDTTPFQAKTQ
#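 20 nM HPGD preincubated 15 min at room temperature with compound in 50 mM Tris-HCl pH 8, 0.01% Tween 20. Started with 1 mM NAD+ and 30 uM prostaglandin E2; NADH fluorescence (360/450 nm) read 5 times over 30-s intervals, last minus first.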
# * marks the source's active call; other numbers are inactive results; ? = inconclusive; & = joins results of further samples. % is scaled to controls: 0 for no effect and ±100 for the full control effect; potency is read from the fitted curve at half-maximal effect.
SMILES | HPGD block
CCOC(=O)c1nn(-c2cccc(C)c2)c2nc(-c3ccccc3)c(C#N)c(=O)n12 | ?
Cc1ccc(N=C2NC(=O)CS2)c(C)c1 | -18.3%
Cc1cc(C)c(NC(=O)C2CCCCN2C)c(C)c1 (configuration not stated) | -8.1%
CCOC(=O)C(NC(=O)Nc1ccc(F)cc1F)(Oc1ccc(F)cc1)C(F)(F)F (configuration not stated) | -1.7%
Cn1c(=O)c2c(nc(N/N=C/c3ccc(OC(=O)c4ccco4)cc3)n2Cc2ccccc2)n(C)c1=O | ?
CNS(=O)(=O)c1cccc(C(=O)NCC(c2cccs2)N(C)C)c1 (configuration not stated) | -1.0%
CCOC(=O)Nc1ccc2c(C)cc(=O)oc2c1 | ?
COc1ccc(C(=O)N2CCN=C2SCc2cccnc2)cc1OC | 0.6%
CCCCN(C)CCC(=O)Nc1ccc(C)cc1 | -11.2%
CCOc1cc(C(c2c(C)[nH][nH]c2=O)c2c(C)[nH][nH]c2=O)ccc1OS(=O)(=O)c1ccccc1 | -0.3%
CCNc1nc(OCCNC(C)=O)nc(N(C)C)n1 | 1.8%
COC(=O)c1[nH]c2cc(OC)ccc2c1NC(=O)CCN1CCN(Cc2ccc3c(c2)OCO3)CC1 | -11.8%
CC1NC(=O)N(C)C2NC(=O)N(C)C(c3ccccc3)C12 (configuration not stated) | -6.8%
Cc1cccc(NC(=O)c2ccc(NS(=O)(=O)c3c(C)noc3C)cc2)c1 | -14.8%
COc1ccc2cc(C(=O)N3CCOCC3)sc(=O)c2c1OC | 22.4µM*
c1ccc(Cc2nc3ccccc3o2)cc1 | -3.4%
O=C(CSc1ccc(-c2ccc(Cl)cc2)nn1)N1CCCc2ccccc21 | -11.8%
COC(CNC(=O)c1cc(C)nn1-c1ccccc1)OC | -15.9%
COc1ccc(Nc2nc3ccccc3nc2-n2nc(C)cc2C)cc1 | -16.8%
CCOc1ccc(C(C#N)N2CCOCC2)cc1OC (configuration not stated) | -13.4%
COc1ccc(OC)c(S(=O)(=O)Nc2ccc3oc4c(c3c2)C(=O)CCC4)c1 | -16.5%
COC(=O)CCC(=O)c1oc2ccc(Cl)cc2c1NC(=O)CCCN1C(=O)c2ccccc2C1=O | -11.1%
Cc1nnc(NC(=O)c2ccc(C)c(S(=O)(=O)N3CCCCCC3)c2)s1 | -0.8%
CCOC(=O)CNC(=O)CSc1ncnc2c1cnn2-c1ccc(Cl)cc1 | -8.4%
O=[N+]([O-])c1ccc(N/N=C/c2ccc[nH]2)cc1 | 14.1µM*
CC(=O)c1ccc(N2C(=O)NC3(CCCCC3)C2=O)cc1 | -3.7%
Nc1nnc(COc2cccc(C(F)(F)F)c2)s1 | -19.2%
Cc1nc(OCc2ccccc2)c2ccccc2n1 | -0.1%
CC(C(=O)Nc1sccc1C(N)=O)N1C(=O)C2CC=CCC2C1=O (configuration not stated) | -7.5%
O=c1c(-c2nnc(SCc3ccc(Cl)cc3)o2)cccn1Cc1ccccc1 | ?
CC(C(=O)N(C)C)N(C#N)c1nc(N(C)C)nc(N(C)C)n1 (configuration not stated) | -5.4%
COCC1=C2c3ccccc3[C@@H]3CNC(=O)C3(C(=O)OC)C[C@@H]2n2c(=O)n(-c3ccccc3)c(=O)n2C1 (some centres not stated) | -16.8%&0.0%
O=c1[nH]cnc2c1sc1nc(-c3ccccc3)c3c(c12)CCCC3 | -24.1%
N#Cc1nc(-c2ccc(Cl)cc2)oc1NCCc1ccccn1 | -19.6%
Cc1cc(C)c2[nH]c(=O)c(C(c3nnnn3Cc3ccc4c(c3)OCO4)N3CCC(C)CC3)cc2c1 (configuration not stated) | -22.5%
COc1ccc(C[C@H](N)C(=O)N[C@@H]2[C@H](O)[C@H](n3cnc4c(N(C)C)ncnc43)O[C@@H]2CO)cc1 | -0.4%
O=C(CNS(=O)(=O)c1ccc2ccccc2c1)OCc1csc(-c2ccccc2)n1 | -4.0%
CCc1ccc(OC)c(S(=O)(=O)NCCOc2ccccc2)c1 | -12.9%
Nc1nc(-c2ccccc2)c(N=Nc2ccccc2Cl)s1 | -10.4%
CCCCCCNC(=O)Nc1ccc(S(=O)(=O)Nc2ccc(CCNC[C@H](O)COc3ccc(O)cc3)cc2)cc1 | -19.5%
COc1cc(/C=N/NC(=O)CCc2c(C)n[nH]c2C)cc(OC)c1OC | -15.3%
Cc1ccccc1N1C(=O)C(Cl)=C(N2CCN(c3ccccc3)CC2)C1=O | -25.5%
COc1ccc(-n2c(C)n[nH]c2=O)cc1OC | -3.7%
CCOC(=O)c1c(NC(=O)CSc2nnc(-c3cccc(C)c3)n2CC)sc(C(C)=O)c1C | 15.8µM*
O=C(CC1CCCCC1)OCn1nnc2ccccc2c1=O | -27.1%
Cc1[nH]c2ccccc2c1NC(=O)CN1CCN(Cc2ccc3c(c2)OCO3)CC1 | -2.8%
CCOC(=O)c1sc(N)nc1-c1ccccc1 | -27.0%
CCc1nc(C#N)c(N2CCCCC2)o1 | -12.7%
C=CCCCCCCCCC(=O)NN | -8.4%
CCSc1nnc2n1C(C)(C)Cc1ccccc1-2 | -10.8%

# Other entries.
SMILES | HPGD block
CC(NC(=O)c1cccs1)c1n[nH]c(=S)n1C (configuration not stated) | -1.9%
Cn1c(=O)c2c(n(C)c1=O)=NC1(CCCCC1)N=2 | -1.3%
CC(NS(=O)(=O)c1cccc(S(=O)(=O)c2ccccc2)c1)C(=O)O (configuration not stated) | -7.9%
CC1(C)O[C@@H]2C[C@H]3[C@H]4C[C@H](F)C5=CC(=O)CC[C@]5(C)[C@@H]4[C@H](O)C[C@]3(C)[C@]2(C(=O)CO)O1 | -6.2%
CC1(C)C=C2[C@H]3CC[C@@H]4[C@@]5(C)CCC(=O)C(C)(C)[C@@H]5CC[C@@]4(C)[C@]3(C)CC[C@@]2(C(=O)O)CC1 | 4.6%
COc1ccc(S(=O)(=O)N(C)CC(=O)Nc2cccc(C(C)=O)c2)cc1C | -1.9%
O=S(=O)(NC1=NCCC1)c1ccc(F)cc1 | -4.7%
CC(C)CNS(=O)(=O)c1ccc(CCC(=O)Nc2ccc3c(c2)OCCO3)cc1 | -2.7%
CCCn1c(SCC(=O)N2c3ccccc3CC2C)nnc1-c1ccco1 (configuration not stated) | -10.1%
O=C(CCN1CCN(c2ccccc2)CC1)NNC(=O)c1cccc2ccccc12 | 2.2%
COc1ccc2nc(NC(=O)C3CCCN(S(=O)(=O)c4cccs4)C3)sc2c1 (configuration not stated) | -23.2%
O=C(c1cnc2sccn2c1=O)N1CCCc2ccccc21 | -2.0%
O=C(c1csnn1)N1CCC[C@@]2(CCN(c3ccccc3)C2)C1 | -1.0%
O=C(CCc1ccccc1)Nc1ccc(NC(=O)C2CC2)nc1 | -7.9%
CNC(=O)CSc1nc(N)c2c3c(sc2n1)CCC3 | -27.9%
CCOc1ccccc1Oc1coc2cc(O)ccc2c1=O | ?
Cc1ccc2nc(-c3ccccc3)c(NC(=O)c3ccco3)n2c1 | -19.1%
C[C@@]12C[C@@H](O)[C@H]3[C@@H](CCC4=CC(=O)CC[C@]43C)[C@H]1CC[C@H]2C(=O)CO | -5.9%
Cc1ccc(NC(=O)CCSc2nnc(Cc3ccccc3)o2)cc1 | -4.5%
COC(=O)c1cnc2ccccc2n1 | -12.1%
CN(C)S(=O)(=O)c1ccc(Cl)c(NC(=O)COC(=O)c2cc(-c3ccccc3)nc3ccccc23)c1 | ?
Cn1nc([N+](=O)[O-])c(C(C#N)c2nc3ccccc3n2C)c(Cl)c1=O (configuration not stated) | -7.0%
COc1ccc(C(=O)COC(=O)c2ccc(NC(C)=O)cc2)cc1[N+](=O)[O-] | ?
Cc1nn(CC#N)c(=O)n1-c1cccc(F)c1 | -7.0%
Cc1nonc1NCn1nnc2ccccc21 | -10.8%
COc1ccc(CC(NC(C)=O)C(=O)NC2CCN(C(=O)NCc3ccccc3)CC2)cc1OC (configuration not stated) | -6.9%
CCOc1ccccc1C(=O)NCC(=O)OCC(=O)c1ccc2c(c1)OCCO2 | -12.9%
COc1cc(C(=O)N(Cc2ccccn2)CC2CCCO2)cc(OC)c1OC (configuration not stated) | -7.9%
Cc1cccc(C)c1NC(=S)NCCc1ccccn1 | -9.5%
Cc1ccc(NC(=O)CN(C)C(=O)CSc2n[nH]c(N)n2)cc1 | -13.2%
COc1cccc(C(=O)N/N=C/c2ccc(OC3CSC3)cc2)c1 | -9.2%
CCOC(=O)C1CCCN(S(=O)(=O)c2cccc3cccnc23)C1 (configuration not stated) | -11.9%
COc1ccc(-c2c(C(F)(F)F)oc3cc(OCC(=O)Nc4ccccc4C(F)(F)F)ccc3c2=O)cc1OC | -15.3%
COc1ccc(N2CCN(c3nc(Cl)nc(N4CCOCC4)n3)CC2)cc1 | -21.1%
N#C/C(=C\c1c(N2CCOCC2)nc2ccccn2c1=O)S(=O)(=O)c1ccccc1 | 2µM*
Cc1csc(SCC(=O)NC23CC4CC(CC(C4)C2)C3)n1 | 28.2µM*
Cc1cccc2c(Cl)cc(=O)[nH]c12 | -10.5%
O=C(Nc1cccc2ncccc12)c1cc2ccccc2o1 | -22.2%
COc1ccccc1NC(=O)CCn1c(=O)sc2ccccc21 | -14.4%
COc1ccc(NS(=O)(=O)c2ccc(NS(C)(=O)=O)cc2)cc1 | -9.7%
CN(C)c1oc(-c2ccccc2Cl)nc1C#N | -15.9%
CCCCS(=O)(=O)Nc1ccc(Cc2ccncc2)cc1 | 15.8µM*
CC(=O)N1CCc2cc(S(=O)(=O)NCCCOC(C)C)ccc21 | -7.8%
O=C(c1nnc(-c2ccncc2)o1)c1ccccc1Cl | -5.2%
Clc1ccc(-c2nnc(SCc3nc4ccccc4s3)o2)cc1 | -2.9%
CCCCn1c(N)c(N(CCC(C)C)C(=O)CSc2nnc(C)s2)c(=O)[nH]c1=O | -7.0%
Cc1ccccc1C(=O)NNC(=O)Cc1ccccc1 | -4.7%
CC(=O)c1ccc(NC(=O)Nc2ccc([N+](=O)[O-])cc2C)cc1 | -13.2%
NC(CO)C(=O)NNCc1ccc(O)c(O)c1O (configuration not stated) | -8.9%&-10.7%&-9.1%
CCOC(=O)c1cnc2ccc(C)cc2c1Sc1ccc(F)cc1 | -19.5%

# Going on with the list.
SMILES | HPGD block
Cn1c(CNC(=O)c2ccc(Cl)cc2)nnc1SCC(=O)Nc1sc2c(c1C#N)CCCC2 | -8.9%
CCCc1cc(=O)[nH]c(SCC(=O)c2ccc(S(=O)(=O)N3CCCC3)cc2)n1 | -11.9%
O=C(NCc1ccccn1)c1cn(Cc2ccccc2)nn1 | -2.1%
COC(=O)CN1C(c2ccc(Cl)cc2)=Nc2ccc(Cl)cc2C1c1ccccc1 (configuration not stated) | -14.6%
C=C(C)c1ccc(C(C)(C)NC(=O)N2CCN(C)CC2)cc1 | -2.4%
Cc1ccc2cc3c(NC(=O)c4cccnc4)nn(C)c3nc2c1 | ?
CNC(=S)N/N=C/c1cn(Cc2ccc(C)cc2)c2ccccc12 | ?
CCOC(=O)C(=O)N1CCN(CC)CC1 | -3.4%
O=C(O)CCCCC1SCC2NC(=O)NC21 (configuration not stated) | -7.6%&-4.7%
O=C(c1cccs1)N(CCO)Cc1cc2cc3c(cc2[nH]c1=O)OCCO3 | -20.4%

# Overlap with the part before: four entries, then new ones.
SMILES | HPGD block
CNC(=S)N/N=C/c1cn(Cc2ccc(C)cc2)c2ccccc12 | ?
CCOC(=O)C(=O)N1CCN(CC)CC1 | -3.4%
O=C(O)CCCCC1SCC2NC(=O)NC21 (configuration not stated) | -7.6%&-4.7%
O=C(c1cccs1)N(CCO)Cc1cc2cc3c(cc2[nH]c1=O)OCCO3 | -20.4%
Cc1ccc(-c2ccc(CCC(=O)O)o2)cc1 | -18.6%
CO/N=C(/C(=O)NC1C(=O)N2C(C(=O)O)=C(CSc3nc(=O)c(O)nn3C)CSC12)c1csc(N)n1 (configuration not stated) | -10.2%&-14.6%
O=C(Nc1ccc(N2CCOCC2)cc1)c1cc(F)c(F)cc1Cl | -4.4%
CCc1ccc(NC(=O)N(Cc2cccnc2)Cc2ccco2)cc1 | -15.4%
CCOC(=O)c1c(NC(=O)CSc2nnnn2-c2ccccc2)sc2c1CCC(C)C2 (configuration not stated) | -14.6%
COCCn1c(CN2CCN(c3cccc(Cl)c3)CC2)nc2c1c(=O)n(C)c(=O)n2C | -9.6%
COC(=O)c1ccccc1NC(=O)CSCC(=O)Nc1ccccc1 | -4.4%
Clc1ccc(CNc2nc(CN3CCOCC3)nc3scc(-c4ccccc4)c23)cc1 | -16.8%
CNC(=S)NC1CC2CCC(C1)N2Cc1ccccc1 (configuration not stated) | -7.0%
Cc1nc(NC(=O)CCC(=O)O)sc1C(=O)N(C)C | -3.7%

# Given with the structure last: entries from further up.
HPGD block | compound
-9.6% | COCCn1c(CN2CCN(c3cccc(Cl)c3)CC2)nc2c1c(=O)n(C)c(=O)n2C
-15.4% | CCc1ccc(NC(=O)N(Cc2cccnc2)Cc2ccco2)cc1

# Additional structures follow:
SMILES | HPGD block
CN(C)S(=O)(=O)c1ccc2c(c1)c(=O)c(C(=O)N1CCN(c3ccccn3)CC1)cn2C | -10.3%
O=C(Nc1c(C(=O)N2CCCC2)cnn1-c1ccccc1)c1cccc(F)c1 | -2.4%
CC(C)(C)C1CCc2nc(NC(=O)Cc3cn4ccsc4n3)sc2C1 (configuration not stated) | -11.3%
O=S(=O)(NCc1cc(-c2ccccc2Cl)no1)c1ccc(Cl)cc1 | -6.7%
COc1ccc(NC(=O)C(c2ccc(OC)cc2)N(C)C(=O)c2cnccn2)cc1 (configuration not stated) | ?
COC(=O)c1[nH]c2ccc(Br)cc2c1NC(=O)CN1CCCc2ccccc21 | -8.3%

# Bioassay records from PubChem BioAssay.

# Not all compounds are listed; the hit share may differ from the screen's.
